# Rce1 inh – yeast Ras-converting enzyme inhibition; Q03530; yeast membranes, quenched prenylated peptide cleavage fluorescence; calls only; hit rate 0.27% among 290,000; AID 2563;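 active means fall in fluorescence gain of 50% or more versus controls, with final raw signal at or below 3038400; inconclusive means same 50% fall but final raw signal above 3038400; inactive means fall in fluorescence gain under 50%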;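 further: plate controls were neutral control wells for no effect and wells lacking membranes for full effect; tested at 10 µM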
# Target sequence (Q03530 whole entry, looked up): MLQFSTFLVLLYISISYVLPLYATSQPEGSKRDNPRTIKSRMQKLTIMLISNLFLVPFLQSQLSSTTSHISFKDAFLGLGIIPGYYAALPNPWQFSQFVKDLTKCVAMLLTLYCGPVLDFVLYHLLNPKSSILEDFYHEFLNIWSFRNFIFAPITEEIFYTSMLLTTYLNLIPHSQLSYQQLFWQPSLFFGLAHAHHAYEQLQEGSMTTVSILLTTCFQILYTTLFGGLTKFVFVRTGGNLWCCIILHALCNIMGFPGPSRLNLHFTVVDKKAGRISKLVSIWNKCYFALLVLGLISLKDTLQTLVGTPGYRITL
# UUG fidelity – alters start codon recognition fidelity in yeast. AID 602363. hit rate 0.13% among 350,000. S. cerevisiae UUG-firefly luciferase reporter, luminescence/redox ratio. activity score, % at 18.7 µM;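 active means replicate mean at a twofold rise or more, about +100% in these data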;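 further: firefly luciferase made from a UUG start codon reports start codon fidelity; reporter light over untreated wells divided by growth signal over untreated wells; some hits fall short of that in this replicate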
# eIF4H FP inh – inhibitors of RNA binding by human eIF4H; Q15056; eIF4H fluorescence polarization binding assay; inhibition, % at 35 µM; hit rate 0.94% among 290,000;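 active means 50% or more with normal probe brightness, or confirmed in later tests; inconclusive means above 50% with abnormal brightness, or retests that disagree; inactive means below 50% or failed in later tests; about a fifth of its hits are not listed in these tables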;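 further: calls also rest on retests at 20 µM and on dose response follow-up; 0% = protein and probe with vehicle and 100% = probe without protein; strong numbers were not always called active; many hits fall short of the cut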
# HIV Env fusion – HIV envelope-mediated fusion inhibition; HeLa-JRFL Env/CEM21 cell fusion, luciferase; inhibition, % at 12.3 µM; hit rate 1.1% among 360,000; AID 651610;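 active means mean replicate inhibition score of at least 50 and every replicate individually at or above 50; inconclusive means only one of the two criteria met; inactive means mean below 50 and not all replicates reaching 50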;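 further: 0% = plate neutral controls and 100% = maraviroc near 300 nM; one replicate is shown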
# CSC inhib – cancer stem cell inhibition. cancer stem cell-like cells viability, luminescence. inhibition, % at 7.5 µM. AID 2717. hit rate 1.1% among 300,000;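 active means mean at 75% or more and at least half the replicates too; inconclusive means mean and replicates disagree; tested in HMLE shEcad cells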;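 further: 0% = median of negative and 100% = median of positive control wells; the first replicate is given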
# MT1-MMP act inh – blocks activation of human MT1-MMP; hit rate 0.061% among 360,000; HT1080 RFP-PRO-GFP cells, GFP/RFP ratio fluorescence, overnight; percent of plate control window, DMSO zero; P50281; GFP/RFP ratio change, % at 20 µM;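 active means GFP/RFP ratio change of at least 30% with cell ATP level not reduced by more than half and red fluorescence within 50% of control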; further: strong numbers were not always called active
#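 Test system: HT1080 cells expressing an RFP-PRO-GFP fluorescent reporter construct / Compound dosing: single-point 20 µM compound, 1% DMSO / Schedule: cells overnight before dosing, compound overnight, 37 °C, 5% CO2 / Evaluation: GFP/RFP fluorescence ratio / Control set: DMSO and RFP-L50D-GFP cell wells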
# PABP FP inh – PABP-poly(A) binding inhibition | PABP-poly(A) RNA binding, fluorescence polarization | P11940 | inhibition, % at 35 µM | hit rate 1% among 290,000;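 active means 50% or more with normal probe brightness, or confirmed in later tests; inconclusive means above 50% with abnormal brightness, or retests that disagree; inactive means below 50% or failed in later tests; about a fifth of its hits are not listed in these tables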;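 further: calls also rest on retests at 20 µM and on dose response follow-up; controls were probe without protein and protein plus probe with vehicle; some compounds called inactive have numbers as strong as hits; many hits fall short of the cut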
# MT1-MMP act inh RFP – second read-out of MT1-MMP act inh, no call of its own (marks repeat the call); RFP signal change, %; measured here: RFP expression control read;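 0 = vehicle wells; hits needed this value within 50% of zero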
# An asterisk follows results filed as active; i = inactive; ? = inconclusive; / = no result given.
# Below each SMILES: PABP FP inh, MT1-MMP act inh RFP, UUG fidelity, MT1-MMP act inh, Rce1 inh, CSC inhib, eIF4H FP inh, HIV Env fusion
COc1ccc(CC(=O)Nc2c3c(nn2C(C)(C)C)CS(=O)(=O)C3)cc1
    10, 1, -8, -1, i, -4, -10, 5
Cn1c(CC(=O)Nc2ccc(Cl)cc2)nnc1SCC(=O)N1CCOCC1
    -4, 2, -12, -3, i, -6, -5, -230
Cc1ccc(S(=O)(=O)CCC(=O)OCC(=O)N2CCc3ccccc32)cc1
    -2, 1, -15, -1, i, 1, -4, -48
O=C(Nc1ccc2c(c1)C(=O)OC2)c1ccccc1Cl
    3, 3, -1, 1, i, 10, -4, -8
Cc1nc(N2CCOCC2)sc1C=O
    7, 3, 14, -1, i, -8, -3, 0
COC(=O)c1cnn(-c2ccccc2)c1/C=N/NC(=S)Nc1ccc(Cl)cc1
    8, -7, -21, -1, i, 5, -7, 7
COc1ccc(/C=N/OCC(=O)N(Cc2ccccc2)c2ccccc2C(=O)O)cc1
    -1, 6, -8, 2, i, 2, -4, 19
O=C(NN=C1CCN(Cc2ccccc2)CC1)c1ccccc1
    -5, 9, /, 3, i, /, 0, 4
CCN(CC)CCN(C)Cc1ccc(Br)cc1
    16, 8, -14, 1, i, -6, 10, /
CS(=O)(=O)c1ccccc1-c1nnc(-c2ccc(Cl)cc2)o1
    -4, 6, /, 5, i, /, -6, -15
Cc1nn(CCC#N)c(N)c1C1(O)C(=O)Nc2c(Cl)cc(Cl)cc21 (centres undefined)
    1, 10, -23, -3, i, 16, 3, -14
COc1ccc2cc(C(=O)N(C)Cc3ccccc3)[nH]c2c1
    -4, 4, -17, 2, i, -4, 4, 5
COCCN(C(=O)C(=O)NC1CCCC1)C(C(=O)NC1CCCC1)c1ccccc1F (centres undefined)
    2, 5, -12, -1, i, -8, -12, 12
CCOC(=O)c1cc(NC(=O)c2ccco2)ccc1N1CCOCC1
    2, 3, /, -3, i, -3, 4, -2
Cc1nnc(SCC(=O)N(CCC#N)c2ccc3c(c2)OCCO3)s1
    /, 3, -5, -1, /, -10, /, /
O=C1C2C3C=CC(C4CC34)C2C(=O)N1c1cc(Cl)ccn1 (centres undefined)
    -4, 1, 2, -1, i, 15, -1, -104
N#Cc1c(N2CCSCC2)nsc1-c1ccccc1Cl
    10, -6, -19, 0, i, 19, -4, 49
CCc1nnc(NC(=O)c2ccc(COc3ccccc3Cl)o2)s1
    4, 5, -12, 5, i, 27, 4, 9
COCc1cc(C)nc(N2CCN(Cc3ccccc3)CC2)c1C#N
    29, 2, -2, -1, i, -4, 4, /
CN1CCN(S(=O)(=O)c2cccc(C(=O)NCCC3=CCCCC3)c2)CC1
    /, -1, -17, 2, i, -8, /, -4

# (cont.)
# Below each SMILES: PABP FP inh, MT1-MMP act inh RFP, UUG fidelity, MT1-MMP act inh, Rce1 inh, CSC inhib, eIF4H FP inh, HIV Env fusion
O=C1CCCN1CCC1CCN(C2CC(=O)N(c3ccc(F)cc3)C2=O)CC1 (centres undefined)
    -6, 3, -24, 7, i, -4, -10, /
COc1ccc(/C=C2\SC(=O)N(CCC(=O)NCCCn3ccnc3)C2=O)cc1
    5, 4, -13, 7, i, 24, 1, -25
CCC(C)NC(=O)CCc1c(C)nc2nc(-c3cc(OC)cc(OC)c3)nn2c1C (centres undefined)
    0, 0, 21, 3, i, -10, -19, ?
Cc1ccc2nc(C)c(C(=O)N/N=C/c3ccc(C(=O)O)cc3)cc2c1
    10, 8, /, 4, i, -5, 4, -18
COc1cc(OC)c(C2=NOC(C(=O)NCCc3ccccc3)C2)cc1Cl (centres undefined)
    -2, 3, -3, 7, i, /, 2, 10
COc1cccc(NC(=S)N2CCCC2)c1
    1, 5, -23, -10, i, -5, 1, 6
CCn1nc(NC(=O)c2ccco2)c2cc3cc(C)ccc3nc21
    5, 3, /, 5, i, -2, -4, -4
COc1ccc(S(=O)(=O)NCc2ccccn2)cc1OC
    -1, -3, -20, -2, i, -11, -2, 14
Cc1cnc([N+](=O)[O-])n1CCOC(=O)NC(=O)c1ccc(C(F)(F)F)cc1
    12, 2, -18, 6, i, -10, 0, 1
O=C(NS(=O)(=O)Oc1ccc(F)cc1F)OC[C@@H]1CCCN2CCCCC12 (some centres undefined)
    5, 1, -11, -1, i, /, -7, 6
O=C1CCC(/C=C/c2ccccc2)=NN1Cc1ccc(Cl)c(Cl)c1
    -10, 0, /, 0, i, -11, -3, /
CCC(ONc1ccccc1C(F)(F)F)(C(=O)NN(C)C)c1ccccc1 (centres undefined)
    /, -9, 64, -6, /, 40, /, -7
O=C(Nc1ccn(Cc2c(F)c(F)cc(F)c2F)n1)c1cccc(Cn2cc([N+](=O)[O-])cn2)c1
    3, -6, /, 3, i, -13, -5, -7
COc1ccc(CC(=O)OCC(=O)N2CCN(S(=O)(=O)c3ccc(C)cc3C)CC2)cc1OC
    /, 0, 1, 9, /, /, /, 10
CCn1cc(C(=O)OCC(=O)c2cc(C)n(-c3ccc(OC(F)F)cc3)c2C)c(=O)c2ccc(C)nc21
    -6, 3, -12, 2, i, 34, 7, -6
O=C(COC(=O)C1COc2ccccc2O1)NC(=O)Nc1ccc2c(c1)OCCO2 (centres undefined)
    9, 5, -18, 8, i, 19, 6, /
C=CCN(C(=O)CNC(=O)c1ccco1)C(C(=O)NC1CCCCC1)c1ccccc1F (centres undefined)
    6, 0, -9, 11, i, /, -12, -240
CCOc1cc(C2Nc3ccccc3C(=O)N2c2ccccc2)c(Br)cc1OCC(=O)O (centres undefined)
    -4, -2, -4, -3, i, -6, 1, -20
O=C(NC1CCCC1)C(c1ccncc1)N(C(=O)Cc1cccs1)c1ccccc1 (centres undefined)
    -7, 8, /, 2, i, -8, -12, 24
CCN(CC)c1ncnc2scc(C3COc4ccccc4O3)c12 (centres undefined)
    -1, -13, -17, -17, i, -18, 1, 28

# Carrying on.
# Below each SMILES: PABP FP inh, MT1-MMP act inh RFP, UUG fidelity, MT1-MMP act inh, Rce1 inh, CSC inhib, eIF4H FP inh, HIV Env fusion
O=S(=O)(Cc1ccccc1)c1ccccc1-c1nnc(-c2ccccc2)o1
    5, -1, -4, -1, i, -12, 4, /
CN(C)c1ccc(/C=C/c2cc[n+]([O-])cc2)cc1
    ?, /, /, /, i, -15, ?, /
CCCCN(C(=O)NC(=O)Nc1ccccc1C)S(C)(=O)=O
    -11, 4, -12, -3, i, 4, 0, -3
COc1cc(/C=N/NC(=O)c2c(-c3ccccc3)noc2C)cc(OC)c1OC
    14, -5, -10, 8, i, -8, -7, 20
COc1ccc(CNC(=O)C(c2ccncc2)N(C(=O)Cc2cccs2)c2cccc(C)c2)cc1 (centres undefined)
    -5, -3, -13, -5, i, 1, -8, /
Cc1cc(C)n(-c2ncnc3sc(C)c(C)c23)n1
    1, 3, /, 2, i, 4, 7, /
COc1ccc(NC(=O)Cn2nc(C)c([N+](=O)[O-])c2C)cn1
    -2, 7, /, 6, i, -6, -10, 6
CCOc1cc2c(cc1OCC)C(C(=O)O)C(c1cc(OC)c(OC)c(OC)c1)N(C)C2=O (centres undefined)
    3, 1, -17, 0, i, -8, 4, /
CCCCOc1ccccc1Cn1c(=O)oc2ccccc21
    2, -9, -17, -1, i, -24, 1, /
Cc1ccc2cc(C)c(SCC(=O)Nc3cc(C)on3)nc2c1
    4, -5, -17, 2, i, /, 4, -1
COc1ccccc1N(C(=O)CNC(=O)c1ccco1)C(C(=O)NC1CCCC1)c1ccncc1 (centres undefined)
    33, 5, -9, 1, i, -5, 2, /
CCOC(=O)N(C)c1c(CC)nc2c(OCc3ccc(F)cc3)cccn12
    /, -5, -19, -5, /, /, /, 1
O=C(/C(=C(/[O-])c1ccccc1)[n+]1ccccc1)c1ccc([N+](=O)[O-])cc1
    -10, 10, -4, -3, i, -9, 5, 15
COc1ccc(N(CC(=O)Nc2ccc3c(c2)OCO3)S(=O)(=O)c2ccccc2)c(OC)c1
    -12, -6, 0, 1, i, /, -3, -12
CCNS(=O)(=O)c1cc(Br)ccc1OC
    -10, 7, -6, 4, i, /, -11, -63
NS(=O)(=O)c1ccc(CNC(=O)C2CCCN2C(=O)c2cccs2)cc1 (centres undefined)
    /, 1, /, -1, /, -13, /, 8
O=C(NC1CCS(=O)(=O)C1)N1CCCCC1 (centres undefined)
    -7, 6, -12, 1, i, -10, 5, -13
Cc1ccc(Nc2nc(NCCCN3CCOCC3)nc(N)c2[N+](=O)[O-])cc1C
    -3, 1, /, -1, i, 13, -2, -16
CC(CCc1ccccc1)NC(=O)CNc1cccc([N+](=O)[O-])c1 (centres undefined)
    -7, 1, -2, 2, i, 6, -2, -4
Cc1ccc(-c2nc3c(=O)n(C)c4ccccc4c3o2)cc1
    -11, 2, -15, 4, i, -14, -1, -55

# (continued)
# Below each SMILES: PABP FP inh, MT1-MMP act inh RFP, UUG fidelity, MT1-MMP act inh, Rce1 inh, CSC inhib, eIF4H FP inh, HIV Env fusion
Cc1cc(C)c(NC(=O)CS(=O)CC(=O)N2CCN(c3ccc(F)cc3)CC2)c(C)c1 (centres undefined)
    -1, 2, 17, 6, i, 2, 0, 29
COc1ccccc1NC(=O)Nc1ncccc1C
    3, -2, -10, -2, i, -4, -5, -41
COCCCNC(=S)NNC(=S)NCCCOC
    2, 0, -22, 1, i, -1, 5, 4
CC1(OC(=O)C2CCCC2)C(=O)C=C2C=C(c3ccc(C#N)cc3)OC=C2C1=O (centres undefined)
    /, -16, -20, 10, i, 6, /, -3
O=C(Cn1c(C(=O)NCC2CCCO2)cc2sccc21)c1ccccc1 (centres undefined)
    2, -1, -12, -2, i, -15, 4, /
CC(C)N1CCN(Cc2ccncc2)CC1CCO (centres undefined)
    -2, -3, /, -2, i, -5, 1, 3
CCC(C)NC(=S)N1CCN(C(c2ccccc2)c2ccccc2)CC1 (centres undefined)
    13, -10, -22, -28, i, -9, 0, -8
O=C(O)CCC(=O)c1ccc2ccc3cccc4ccc1c2c34
    30, /, /, /, i, -4, 17, -40
O=C(CSc1ccc(-c2ccccc2)nn1)NC1CCCCC1
    11, -4, 1, -3, i, -2, -12, 17
CCN(C(=O)COC(=O)c1ccco1)c1cccc2ccccc12
    /, 1, -4, 3, /, -9, /, /
COc1cc2c(-c3cc(F)cc(F)c3)c(-c3ccsc3)oc(=O)c2cc1OC
    /, -10, -5, -5, /, 3, /, ?
CCc1ccc(N(C(=O)c2snc(C(N)=O)c2N)C(C(=O)NCC2CCCO2)c2ccco2)cc1 (centres undefined)
    -8, 0, 1, -2, /, -16, 15, 16
O=C(CC1C(=O)N(c2ccccc2)C(=S)N1c1ccccc1)c1ccccc1 (centres undefined)
    -8, /, /, /, i, -2, 13, 3
O=C(COc1ccccc1)Nc1cccc(-c2cn3cccnc3n2)c1
    4, 1, -25, 6, i, -12, -1, -48
COC(=O)c1ccc(C#Cc2ccccc2)o1
    16, 2, -8, 1, i, -6, -2, -11
O=C(NCCO)c1cc2c([nH]c3ccccc32)c(-c2ccccc2)n1
    2, -1, 1, 4, i, 20, 5, 34
O=C(Nc1ccc(F)cc1)c1cn(-c2ccccc2)nc1-c1ccncc1
    -2, -11, -14, -7, i, -7, 6, /
Cc1ccc(NC(=O)[C@H](NC(=O)[C@@H]2Cc3ccccc3CN2)c2ccccc2)cc1
    6, 0, -34, -5, i, 13, -7, -4

# Sorted by the number under MT1-MMP act inh RFP (falling): three from the list above.
compound	MT1-MMP act inh RFP
Cc1ccc(NC(=O)[C@H](NC(=O)[C@@H]2Cc3ccccc3CN2)c2ccccc2)cc1	0
CN1CCN(S(=O)(=O)c2cccc(C(=O)NCCC3=CCCCC3)c2)CC1	-1
COc1ccc(N(CC(=O)Nc2ccc3c(c2)OCO3)S(=O)(=O)c2ccccc2)c(OC)c1	-6

# High-throughput results from PubChem BioAssay.
